Compound activity: PubChem, National Center for Advancing Translational Sciences (NCATS)
Lassa entry inh: qHTS for Inhibitors of binding or entry into cells for Lassa Virus | Lassa virus pseudotype entry inhibition, cell reporter; control for the full effect not named in the record | Potency, µM (titrated, usually from 37.9 µM), without a hit: at the top dose activity change, negative = inhibition, most hits filed as inhibitors | hit rate 1.2% among 300,000 | AID 540256, 2011; active means well fitted inhibition curve with a large enough effect; inconclusive means small, poorly fitted or top-dose-only effect, or effect the other way; inactive means flat fitted curve, though single readings scatter; tested in HEK293 cells; further: on the % scale 0 is the no-effect control and ±100 the full control effect; nearly all actives have a fitted effect of over 50% in size; luciferase read-out
Cruzain inh Det: qHTS Assay for Promiscuous and Specific Inhibitors of Cruzain (with detergent); Cruzipain (Trypanosoma cruzi), P25779; purified cruzain, Z-FR-AMC fluorescence, 0.01% Triton; Potency, µM, without a hit: max response, negative = inhibition, usual class: inhibitors; hit rate 0.43% among 200,000;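 further: plate controls were neutral wells for no effect and buffer without enzyme for full effect; nearly all actives have a fitted effect of over 40% in size; top concentration of the series not given in the record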
Target sequence (P25779 123-467 limits assumed): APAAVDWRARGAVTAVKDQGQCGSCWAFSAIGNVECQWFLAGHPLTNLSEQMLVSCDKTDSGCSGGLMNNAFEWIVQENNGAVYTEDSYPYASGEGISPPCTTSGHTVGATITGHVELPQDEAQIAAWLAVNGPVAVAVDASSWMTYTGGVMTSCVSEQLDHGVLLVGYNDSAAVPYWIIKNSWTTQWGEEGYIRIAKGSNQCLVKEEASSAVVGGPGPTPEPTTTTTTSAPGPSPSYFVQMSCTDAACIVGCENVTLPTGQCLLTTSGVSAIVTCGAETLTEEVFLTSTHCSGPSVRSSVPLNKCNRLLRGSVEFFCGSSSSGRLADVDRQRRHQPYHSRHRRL
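Cruzain (1.5 nM) preincubated 15 min at RT with compound in 100 mM sodium acetate pH 5.5, 5 mM DTT, 0.01% Triton X-100. Reaction started with 2 uM Z-FR-AMC; AMC fluorescence (ex 360/em 450 nm) change over 60 s gave rate.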
RE007 growth inh: qHTS Assay for Inhibitors of the HIV-1 protein Vpr; S. pombe RE007 Vpr strain, BacTiter-Glo ATP luminescence, 24 h; control for the full effect not named in the record; Potency, µM (titrated, usually from 92.2 µM), for the others: at the highest dose activity change, negative = less growth; hit rate 0.21% among 360,000; AID 651644, 2012; active = well fitted falling curve with a large enough effect; inconclusive = small, poorly fitted or top-dose-only effect; inactive = no such curve, though single readings can be large or run the other way;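 further: on the % scale 0 is the no-effect control and ±100 the full control effect; nearly all actives have a fitted effect of over 50% in size; the assay follows cell death caused by Vpr and the record does not say whether a fall means rescue or toxicity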
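Fission yeast strain RE007, carrying one chromosomally integrated HIV-1 vpr copy, was seeded at OD 0.01 in PMG+AL medium with 23 nL pinned compound. After 24 h at 30 °C and 99% humidity, viability was read by BacTiter-Glo luminescence.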
StopGo reporter: High Throughput Screening for Foot and Mouth Disease Virus Antivirals; human cells with a luciferase reporter of 2A StopGo recoding; control for the full effect not named in the record; Potency, µM (top dose mostly 57.9 µM), for inactives: at the top dose signal change, negative = less light; hit rate 1.2% among 410,000; active = well fitted falling curve with a large enough effect; inconclusive = small, poorly fitted or top-dose-only effect; inactive = no such curve, though single readings can be large or run the other way; tested in HEK293T cells; further: on the % scale 0 is the no-effect control and ±100 the full control effect; nearly all actives have a fitted effect of over 45% in size; luciferase light after 4 h
Cruzain noTriton: qHTS Assay for Promiscuous and Specific Inhibitors of Cruzain (without detergent); Potency, µM, without a hit: max response, negative = inhibition, actives largely listed as inhibitors; purified cruzain, Z-FR-AMC fluorescence, no detergent; hit rate 2.3% among 200,000; AID 1476, 2009;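 further: plate controls were enzyme without inhibitor for no effect and buffer without enzyme for full effect; nearly all actives have a fitted effect of over 40% in size; top concentration of the series not given in the record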
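Detergent-free condition (0.00005% Triton X-100) in acetate buffer pH 5.5 with DTT. 1.5 nM enzyme and compound were pre-mixed 15 min, then 2 uM Z-FR-AMC substrate added; reaction progress from fluorescence change between first and third reads (60 s).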
SARS PLpro yeast: qHTS of Yeast-based Assay for SARS-CoV PLP | S. cerevisiae expressing SARS-CoV PLpro, growth rescue; control for the full effect not named in the record | Potency, µM (highest dose often 32.9 µM), for the others: at the top dose activity, positive = growth rescue | hit rate 0.19% among 330,000; active means well fitted rising curve with a large enough effect; inconclusive means small, poorly fitted or top-dose-only effect; inactive means no such curve, though single readings can be large or run the other way; further: 0% is about no effect; nearly all actives have a fitted effect of over 55% in size; growth read by luminescence after 48 h
Marburg entry inh: qHTS for inhibitors of binding or entry into cells for Marburg Virus. Marburg virus pseudotyped entry inhibition, cell reporter; control for the full effect not named in the record; about a third of the inactives were read at about 46 µM. hit rate 1.8% among 300,000. Potency, µM (doses to about 37.8 µM), for inactives: top-dose activity change, negative = inhibition, actives largely listed as inhibitors; active = well fitted inhibition curve with a large enough effect; inconclusive = small, poorly fitted or top-dose-only effect, or effect the other way; inactive = flat fitted curve, though single readings scatter; tested in HEK293 cells; about a fifth of its hits are not listed in these tables; further: on the % scale 0 is the no-effect control and ±100 the full control effect; luciferase read-out
NS1 function inh: qHTS Assay for Inhibitors of Influenza NS1 Protein Function. S. cerevisiae slowed by influenza A NS1, growth recovery by OD600. Potency, µM (doses to about 46.1 µM), for the others: at the highest dose activity, positive = more growth. hit rate 0.4% among 270,000; active means well fitted rising curve with a large enough effect; inconclusive means small, poorly fitted or top-dose-only effect; inactive means no such curve, though single readings can be large or run the other way; further: nearly all actives have a fitted effect of over 50% in size
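S. cerevisiae expressing influenza A NS1, grown in glucose, washed, then diluted 1:100 into pH 6.0 -URA galactose medium with 23 nl compound. Growth recovery read as OD600; NS1-free strain serves as control.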
Starred values were filed as active, the others as inactive; ? = inconclusive; . = no result given; [ ] = remark or other dose. Unless noted, the call rests on the fitted dose curve; in most records, active means well fitted curve in the direction sought with a large enough effect; inconclusive means small, poorly fitted or top-dose-only effect, or another doubt; inactive means no such curve, though single readings can be large; an effect the other way counts as inactive or inconclusive. Potency means the concentration at half of the fitted maximal effect. This is a random part of the collection. About 4.7% of those tested had a hit in this group.

SMILES	Lassa entry inh	Cruzain inh Det	RE007 growth inh	StopGo reporter	Cruzain noTriton	SARS PLpro yeast	Marburg entry inh	NS1 function inh
O=C(CSc1nc2ccccc2o1)Nc1ccccc1N1CCOCC1	5%	-3.0%	5%	?	-8%	0%	?	-6%
Cn1c2c(c(=O)n(C)c1=O)CN(Cc1ccco1)CN2	7%	-3.8%	-21%	-12%	0%	0%	11%	-26%
COc1ccccc1N1CCN(C(=O)Cn2ncc3c([nH]c4ccccc43)c2=O)CC1	0%[46.1 µM]	.	25%	?	.	-4%	.	0%
COc1cc(NC(=O)CCN2CC(C)OC(C)C2)cc(OC)c1 (stereo unspecified)	2%	.	4%	-10%	.	0%	-8%	-5%
Oc1ccc(/C=N/n2cnn(Cc3ccccc3Cl)c2=S)c(O)c1	16%	-8.3%	18%	5%	6%	-4%	9%	-24%
CCc1nc(SCC(=O)Nc2ccccc2)c2c(=O)n(C)c(=O)n(C)c2n1	1%	.	-16%	3%	.	-8%	0%	4%
CCOC(=O)C1CCC(CN(Cc2ccc(Cl)cc2)S(=O)(=O)c2cc(Cl)cc(Cl)c2)CC1 (stereo unspecified)	4%[46.1 µM]	1.0%	.	?	13%	.	.	.
Cc1ccc(OCc2ccc(C(=O)N3CCOCC3)cc2)cc1C	?	1.5%	-1%	.	?	-16%	-8%	-33%
COc1ccc(/C=C/C(=O)NC(=S)NNC(=O)c2cccnc2)cc1OC	-2%	0.6%	-6%	8%	-13%	-3%	-28%	12%
CC1(C(=O)NCc2cccnc2)CCC(=O)N1CCc1ccccc1 (stereo unspecified)	.	-1.8%	-16%	-14%	-9%	-36%	.	-8%
COc1cccc(-c2cc(C(=O)N3CCN(Cc4ccccc4)CC3)no2)c1	-3%	-5.9%	-1%	14%	-2%	-6%	7%	-28%
CN(C)c1ccc(CNC(=O)C2CCCN(S(=O)(=O)c3ccc4c(c3)CCCC(=O)N4)C2)cc1 (stereo unspecified)	-10%[46.1 µM]	-1.4%	.	?	2%	.	.	.
CCCCCC(=O)Nc1ccc(Cc2ccncc2)cc1	-27%	-1.9%	15%	-12%	13%	13µM*	-9%	-16%
Cc1ccnc(-n2c(C)cc(C=C3C(=O)N(C)C(=S)N(C)C3=O)c2C)c1	-2%	-0.7%	9%	?	14%	-5%	21%[46.1 µM]	10%
CCNS(=O)(=O)c1ccc(CCC(=O)NCCc2ccc(OC)cc2)cc1	-13%	.	18%	-6%	.	1%	7%	.
COC(=O)c1ccc(CSc2n[nH]c(=S)s2)o1	0%	1.6%	-8%	-6%	-2%	24%	?	-4%
COc1ccc(OC)c(NC(=O)CSC2=Nc3ccccc3C3=NC(CCC(=O)NCc4ccccc4)C(=O)N23)c1 (stereo unspecified)	17%[46.1 µM]	-1.7%	.	-7%	-3%	.	.	.
CCC(C)(C)NC(=O)C(c1ccc(C)o1)N(Cc1ccc2c(c1)OCO2)C(=O)c1snc(C(N)=O)c1N (stereo unspecified)	.	.	-7%	3%	.	-3%	-20%[46.1 µM]	9%
CCN(CC(=O)Nc1ccc(OC)cc1)C(=O)c1cc2c(s1)CCCCC2	9%	.	3%	-8%	.	-1%	-13%	.
CCn1c(C(=O)N2CCC(C(=O)N3CCN(c4cccc(C)c4C)CC3)CC2)cc2sccc21	.	-7.6%	.	?	?	.	?	.
COc1ccc(N2CCN(C(=O)C3CCN(S(=O)(=O)c4ccc(C)cc4)CC3)CC2)cc1	1%	.	-8%	-18%	.	0%	15%[46.1 µM]	5%
CSc1ncccc1C(=O)OCC(=O)N(C)C1CCS(=O)(=O)C1 (stereo unspecified)	13%	0.5%	-4%	-3%	-3%	2%	-3%	11%
CCCn1c(-c2ccc[nH]c2=O)nc2cc(C)c(C)cc21	11%[46.1 µM]	.	-18%	35%[activator]	.	0%	-10%[46.1 µM]	5%
Cc1ccc(CCNC(=O)CSCc2nc(-c3ccc(C)cc3)oc2C)cc1	0%[46.1 µM]	-4.4%	.	-15%	24%	.	10%[46.1 µM]	.
CN(Cc1ccccc1)C(=O)c1ccc(COc2ccccc2)cc1	?	.	-13%	47%[activator]	.	-8%	0%	-46%
CCOc1cc(N2CCOCC2)c(OCC)cc1NC(=O)[C@H](C)NC(=O)c1ccco1	?	.	1%	-2%	.	2%	2%[46.1 µM]	14%
Cc1cccc(-c2nc(SCCCOc3cc(C)c(Cl)c(C)c3)n3[nH]c(=O)cc3n2)c1	?	-0.6%	.	-8%	-1%	.	.	.
COc1ccc(CCN2C(=O)N(c3ccc(OC)cc3)C(=O)C2CC(=O)Nc2ccc(OC)cc2)cc1 (stereo unspecified)	?	.	12%	0%	.	-1%	28%[46.1 µM]	-43%
CC12CC3CC(C)(C1)CC(C(=O)NNC(=O)c1ccncc1)(C3)C2	.	.	-1%	-23%	.	-4%	.	5%
CCOCC(=O)Nc1c(C(=O)OCC)oc2ccccc12	2%	1.6%	-22%	-11%	-3%	5%	1%	-13%
CCOc1ccc(C(=O)c2oc3ccccc3c2NC(=O)c2cc(-c3ccc(Cl)cc3)on2)cc1	17%[46.1 µM]	-0.5%	.	-11%	2%	.	-6%[46.1 µM]	.
CCOCCN(C(=O)c1ccccc1Cl)c1ccccc1	17%	.	-15%	-17%	.	2%	0%	0%
Cc1ccc(C(C)n2cc(C(=O)NCc3ccncc3)nn2)cc1 (stereo unspecified)	12%	-2.5%	-7%	-2%	-2%	-1%	2%[46.1 µM]	-9%
O=C(c1ccc([N+](=O)[O-])o1)N1CCN(Cc2ccccc2)CC1	.	.	-11%	-10%	.	-2%	.	-23%
Cc1c(Cl)cccc1NC(=S)NCCN1CCOCC1	-2%	1.5%	25%	-3%	-8%	5%	5%	6%
CSc1ccccc1NC(=S)Nc1cc(C)cc(C)c1	7%	-3.8%	-8%	27%	-9%	16%	?	-1%
O=C(NC1CCCc2c1cnn2-c1cc(F)cc(F)c1)c1ccc[n+]([O-])c1 (stereo unspecified)	2%	.	6%	-15%	.	-3%	13%	5%
Cc1cc(C)c(C)c(SCC(=O)Nc2oc(C)c3c(C)n[nH]c(=O)c23)c1C	?	.	-11%	-25%	.	.	6%	.
COc1cc(C=O)ccc1OC(=O)c1cccnc1	.	.	21%	-15%	.	-2%	.	-17%
O=[N+]([O-])c1cccc(C(=S)N2CCN(c3ccc(F)cc3)CC2)c1	?	.	3%	-25%	.	0%	?	1%

Compound profiles, as listed above. Order of values: Lassa entry inh	Cruzain inh Det	RE007 growth inh	StopGo reporter	Cruzain noTriton	SARS PLpro yeast	Marburg entry inh	NS1 function inh
Record of O=[N+]([O-])c1cccc(C(=S)N2CCN(c3ccc(F)cc3)CC2)c1 = ?	.	3%	-25%	.	0%	?	1%
Record of Cc1c(Cl)cccc1NC(=S)NCCN1CCOCC1 = -2%	1.5%	25%	-3%	-8%	5%	5%	6%
Record of COc1cc(C=O)ccc1OC(=O)c1cccnc1 = .	.	21%	-15%	.	-2%	.	-17%
Record of CSc1ccccc1NC(=S)Nc1cc(C)cc(C)c1 = 7%	-3.8%	-8%	27%	-9%	16%	?	-1%
Record of CCOCCN(C(=O)c1ccccc1Cl)c1ccccc1 = 17%	.	-15%	-17%	.	2%	0%	0%

Going on with the list:
SMILES	Lassa entry inh	Cruzain inh Det	RE007 growth inh	StopGo reporter	Cruzain noTriton	SARS PLpro yeast	Marburg entry inh	NS1 function inh
COc1cc(-c2csc(NC3CCCCC3)n2)cc(OC)c1OC	?	.	-21%	-30%	.	-2%	?	30%
COc1ccc(C(=O)c2oc3ccccc3c2NC(=O)c2nc(SC)ncc2Cl)cc1Cl	7%[46.1 µM]	-1.0%	.	1%	3%	.	-15%[46.1 µM]	.
CCN1C(=O)CC2CCCC1C2 (stereo unspecified)	2%[46.1 µM]	.	4%	-11%	.	.	-1%	.
CC1=NNC(=O)c2ccccc2O1	-14%[46.1 µM]	.	6%	-11%	.	1%	-16%[46.1 µM]	3%
O=C(CSc1nnc(CNC(=O)c2ccccc2)n1-c1ccc(F)cc1)Nc1ccccc1F	-17%[46.1 µM]	1.7%	.	-12%	8%	.	-13%[46.1 µM]	.
COCCCn1c(SCC(=O)NC2CCCCC2)nc2ccccc2c1=O	2%	.	6%	12%	.	0%	22%[46.1 µM]	12%
CCOC(=O)C1CCCN(C2CCN(Cc3nc(Cc4ccccc4)no3)CC2)C1 (stereo unspecified)	.	.	-7%	1%	.	-1%	3%[46.1 µM]	0%
Cc1ccc(C2CC2c2n[nH]c(=S)n2-c2cccc(C)c2)cc1 (stereo unspecified)	?	.	7%	-24%	.	0%	?	2%
CCCCCC/C(=N/O)c1ccccn1	6%	-1.6%	?	25%	4%	-23%	?	-269%
Cc1ccc(C(=O)N2CCNC(=O)C2CC(=O)Nc2ccc(F)cc2)cc1C (stereo unspecified)	-29%	.	5%	-9%	.	-8%	3%[46.1 µM]	19%
Cc1cc(C)c2nc(N3CCCC(C(=O)N4CCC(C(N)=O)CC4)C3)sc2c1 (stereo unspecified)	6%	0.0%	-5%	12%	?	9%	1%	-55%
O=C(CCS(=O)(=O)Cc1ccccc1)Nc1nnc(C(F)(F)F)s1	?	.	5%	-4%	.	1%	?	5%
Cc1csc(N2CCN(c3cc4c(cc3Cl)nc(-c3ccncc3)n4CCCN3CCCC3)CC2)n1	.	.	-5%	?	.	-4%	.	-2%
Fc1cnc(N2CCOCC2)nc1N1CCOCC1	0%	.	-8%	-23%	.	0%	?	7%
